UUG fidelity = alters start codon recognition fidelity in yeast; S. cerevisiae UUG-firefly luciferase reporter, luminescence/redox ratio; activity score, % at 18.7 µM; hit rate 0.13% among 350,000;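 active means replicate mean at a twofold rise or more, about +100% in these data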;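 further: firefly luciferase made from a UUG start codon reports start codon fidelity; reporter light over untreated wells divided by growth signal over untreated wells; some hits fall short of that in this replicate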
Active calls of the source: *. Not all compounds are listed; the hit share may differ from the screen's.

entry | UUG fidelity | Structure
1 | 4 | CCCC(=O)Nc1ccc2c(c1)C(=O)N(C)[C@H]1CC[C@@H](CC(=O)NCc3ccccc3Cl)O[C@@H]1CO2
2 | 4 | C[C@H]1CN([C@@H](C)CO)C(=O)c2cc(NS(C)(=O)=O)ccc2O[C@@H]1CN(C)Cc1ccc(-c2ccccc2)cc1
3 | 0 | CCN1[C@@H]2c3ccc(-c4cccc(F)c4)c(=O)n3C[C@H]1[C@H](CO)[C@H]2C(=O)NCC1CC1
4 | 0 | C[C@H](CO)N1C[C@H](C)[C@H](CN(C)S(=O)(=O)c2ccc(F)cc2)Oc2ccc(NS(=O)(=O)c3cn(C)cn3)cc2C1=O
5 | 1 | CO[C@H]1CN(C)C(=O)c2cc(NC(=O)c3cccc(F)c3)ccc2OC[C@H](C)N(CC2CC2)C[C@H]1C
6 | 18 | C[C@H](O)C#Cc1ccc([C@H]2[C@@H](CO)N3CCCCN(S(=O)(=O)c4ccccc4)C[C@@H]23)cc1
7 | 0 | COCCNC(=O)C[C@H]1CC[C@H]2[C@H](COc3ccc(NC(=O)c4cc(C)on4)cc3C(=O)N2C)O1
8 | 15 | CC(C)NC(=O)N1C[C@@H]2[C@H](c3ccccc31)[C@@H](CO)N2C(=O)Nc1cccc(F)c1
9 | -4 | CCC(=O)NC[C@@H]1[C@@H](c2ccccc2)[C@H](CO)N1C(=O)C1CCC1
10 | 5 | COc1ccc(S(=O)(=O)N(C)C[C@H]2Oc3c(NC(=O)NC4CCCCC4)cccc3C(=O)N([C@@H](C)CO)C[C@H]2C)cc1
11 | 2 | CCS(=O)(=O)N1CCCCN2[C@H](CO)[C@H](c3ccc(-c4ccc(C(=O)N(C)C)cc4)cc3)[C@H]2C1
12 | 4 | C[C@H](CO)N1C[C@H](C)[C@H](CN(C)C(=O)Nc2ccccc2)Oc2ccc(NS(=O)(=O)c3ccc(Cl)cc3)cc2CC1=O
13 | 30 | Cc1ccccc1-c1ccc([C@@H]2[C@@H](CO)N3CCCCN(C(=O)CN4CCOCC4)C[C@@H]23)cc1
14 | 5 | COCC(=O)N1C[C@@H](C)[C@H](OC)CN(C)C(=O)c2cc(NC(=O)c3ccccc3)ccc2OC[C@H]1C
15 | -2 | C[C@@H]1CN([C@H](C)CO)C(=O)c2cc(NS(=O)(=O)c3ccc(Cl)cc3)ccc2O[C@@H]1CN(C)C(=O)Nc1ccc2c(c1)OCO2
16 | 5 | COc1ccccc1C(=O)N1C[C@H]2[C@@H](c3ccccc31)[C@H](CO)N2C(=O)C1CCCC1
17 | -12 | Cc1ccc(S(=O)(=O)Nc2ccc3c(c2)CC(=O)N([C@@H](C)CO)C[C@H](C)[C@H](CN(C)C)O3)cc1
18 | -36 | OC[C@H]1[C@H](c2ccc(-c3ccc(F)cc3)cc2)[C@H]2CN(Cc3ccccn3)CCCCN21
19 | 2 | C[C@H]1CN([C@@H](C)CO)C(=O)c2cccc(NC(=O)C3CCCCC3)c2O[C@@H]1CN(C)Cc1ccc(C(F)(F)F)cc1
20 | 2 | CN1c2ccc(Br)cc2[C@@H]2[C@@H](CCN2C(=O)CN2CCOCC2)[C@H]1CO
21 | 4 | COCC(=O)Nc1ccc2c(c1)OC[C@H](C)N(Cc1ccncc1)C[C@H](C)[C@H](OC)CN(C)C2=O
22 | -23 | CO[C@H]1CN(C)C(=O)c2cc(NC(C)=O)ccc2OC[C@@H](C)N(Cc2ccccn2)C[C@@H]1C
23 | -11 | CCC(=O)Nc1ccc2c(c1)OC[C@@H](C)N(C(=O)Nc1ccccc1F)C[C@@H](C)[C@H](OC)CN(C)C2=O
24 | 3 | C[C@@H]1CN([C@@H](C)CO)C(=O)c2cc(NC(=O)Nc3cccc4ccccc34)ccc2O[C@H]1CN(C)S(=O)(=O)c1cn(C)cn1
25 | -14 | CN1C(=O)c2cc(NC(=O)c3ccc(Cl)cc3)ccc2OC[C@@H]2O[C@H](CC(=O)NCc3cccc(F)c3)CC[C@@H]21
26 | 5 | CCC(=O)N1CCCCN2[C@@H](CO)[C@H](c3ccc(/C=C/c4ccccc4)cc3)[C@@H]2C1
27 | -4 | CO[C@@H]1CN(C)C(=O)c2ccc(NC(=O)c3ccccc3F)cc2OC[C@H](C)N(C(C)=O)C[C@H]1C
28 | -5 | C/C=C/c1ccc([C@@H]2[C@@H](CO)N(C(C)=O)[C@H]2CNC(=O)c2ccccc2)cc1
29 | -3 | Cc1ccc(S(=O)(=O)N(C)C[C@@H]2Oc3ccc(N(C)C)cc3CC(=O)N([C@@H](C)CO)C[C@@H]2C)cc1
30 | -4 | COc1ccc(NC(=O)N(C)C[C@@H]2Oc3c(NC(=O)NC(C)C)cccc3C(=O)N([C@H](C)CO)C[C@@H]2C)cc1

Fetched one by one from the entries so far, two records:
entry | UUG fidelity | Structure
29 | -3 | Cc1ccc(S(=O)(=O)N(C)C[C@@H]2Oc3ccc(N(C)C)cc3CC(=O)N([C@@H](C)CO)C[C@@H]2C)cc1
20 | 2 | CN1c2ccc(Br)cc2[C@@H]2[C@@H](CCN2C(=O)CN2CCOCC2)[C@H]1CO

Single values from the entries so far.
UUG fidelity with entry 3 : 0
UUG fidelity with entry 14 : 5
UUG fidelity with entry 27 : -4
UUG fidelity with entry 12 : 4
UUG fidelity with entry 16 : 5

An excerpt of these results, tab-delimited.
entry	molecule	UUG fidelity
12	C[C@H](CO)N1C[C@H](C)[C@H](CN(C)C(=O)Nc2ccccc2)Oc2ccc(NS(=O)(=O)c3ccc(Cl)cc3)cc2CC1=O	4
18	OC[C@H]1[C@H](c2ccc(-c3ccc(F)cc3)cc2)[C@H]2CN(Cc3ccccn3)CCCCN21	-36

Going on with the list.
entry | UUG fidelity | Structure
31 | -3 | COc1ccccc1NC(=O)N1C[C@@H](C)[C@H](OC)CN(C)C(=O)c2ccc(NC(=O)c3ccccn3)cc2OC[C@H]1C
32 | 1 | CCCNC(=O)[C@H]1[C@H](CO)[C@H]2Cn3c(ccc(C4=CCCCC4)c3=O)[C@@H]1N2C(=O)CC
33 | 17 | CC(C)(O)C#Cc1ccc([C@@H]2[C@H](CO)N3CCCCN(C(=O)c4ccc(F)cc4)C[C@@H]23)cc1
34 | -14 | CC(C)NC(=O)Nc1ccc2c(c1)CC(=O)N([C@@H](C)CO)C[C@H](C)[C@@H](CN(C)Cc1ccc(C(=O)O)cc1)O2
35 | -15 | O=C(Nc1ccccc1)[C@@H]1[C@@H](CO)[C@@H]2Cn3c(cccc3=O)[C@@H]2N1C(=O)C1CC1
36 | -1 | CCNC(=O)C[C@H]1CC[C@H]2[C@@H](COc3ccc(NC(=O)c4ccc(F)c(F)c4)cc3C(=O)N2C)O1
37 | 4 | CCCNC(=O)N1C[C@@H](O)COC[C@H]2O[C@@H](CC(=O)N3CCCCC3)CC[C@@H]21
38 | -10 | COc1ccc(-c2ccc3c(c2)[C@@H]2[C@@H](CCN2C(=O)Nc2ccccc2OC)[C@@H](CO)N3C)cc1
39 | -3 | CN(C)CCCNC(=O)[C@@H]1[C@@H](CO)[C@@H]2Cn3c(ccc(C4=CCCCC4)c3=O)[C@H]1N2Cc1cocn1
40 | -4 | O=C(Nc1cccc(Cl)c1)N1C[C@@H]2[C@H](c3ccccc31)[C@@H](CO)N2C(=O)C1CC1
41 | 1 | CN(C)CC#Cc1ccc([C@H]2[C@@H](CO)N3CCCCN(C(=O)Nc4ccc(F)cc4)C[C@H]23)cc1
42 | -1 | O=C(c1ccc2c(c1)OCO2)N1C[C@H]2[C@@H](c3ccccc31)[C@@H](CO)N2Cc1cccnc1
43 | -2 | CO[C@@H]1CN(C)C(=O)c2cc(NC(=O)c3cnccn3)ccc2OC[C@@H](C)N(C(C)=O)C[C@H]1C
44 | -8 | C[C@@H]1CN([C@H](C)CO)C(=O)CCCn2cc(nn2)CO[C@H]1CN(C)C(=O)Nc1ccc(N2CCN(C)CC2)cc1
45 | 4 | Cc1ccccc1S(=O)(=O)N1CC[C@@H]2[C@@H](CO)Nc3ccc(C#Cc4ccccc4)cc3[C@@H]21
46 | -5 | O=S(=O)(c1ccccc1)N1C[C@H]2[C@@H](c3ccccc31)[C@@H](CO)N2Cc1ccc2c(c1)OCO2
47 | 9 | CN(C)C(=O)C[C@H]1C[C@@H]2c3cc(NC(=O)Nc4ccc(C(F)(F)F)cc4)ccc3O[C@@H]2[C@H](CO)O1
48 | 3 | CCCC(=O)Nc1ccc2c(c1)C(=O)N(C)C[C@H](OC)[C@H](C)CN(C(=O)c1cnccn1)[C@H](C)CO2
49 | -5 | CO[C@H]1CN(C)C(=O)c2ccc(NC(C)=O)cc2OC[C@H](C)N(CCC(F)(F)F)C[C@H]1C
50 | -6 | C[C@@H](NC(=O)[C@@H]1[C@@H](CO)[C@@H]2Cn3c(ccc(-c4ccccc4)c3=O)[C@@H]2N1C)c1ccccc1
51 | 13 | CCCNC(=O)C[C@H]1CC[C@@H]2[C@H](COC[C@H](O)CN2C(=O)c2cc(Cl)cc(Cl)c2)O1
52 | -8 | COc1ccc(S(=O)(=O)N2CC[C@H]3[C@H](CO)Nc4ccc(-c5ccccc5F)cc4[C@H]32)cc1
53 | -1 | COc1cccc(S(=O)(=O)N2CCCCN3[C@@H](CO)[C@@H](c4ccc(-c5ccccc5)cc4)[C@@H]3C2)c1
54 | -2 | COCC(=O)N1C[C@@H]2[C@H](c3ccccc31)[C@@H](CO)N2C(=O)Nc1ccccc1F
55 | 11 | C[C@H]1CN([C@@H](C)CO)C(=O)c2cccc(NC(=O)C3CCCCC3)c2O[C@H]1CN(C)Cc1ccc(Oc2ccccc2)cc1
56 | 47 | COc1ccccc1CN1[C@H](CO)[C@@H]2c3ccccc3N(C(=O)C3CCC3)C[C@@H]21
57 | -3 | CCC(=O)N1[C@H](CN(C)C(=O)c2ccccc2F)[C@@H](c2ccccc2)[C@@H]1CO
58 | 44 | Cc1ccc(S(=O)(=O)N(C)C[C@H]2Oc3ccc(NC(=O)CCN4CCOCC4)cc3CC(=O)N([C@@H](C)CO)C[C@@H]2C)cc1
59 | 6 | CNC(=O)C[C@@H]1CC[C@H]2[C@@H](COC[C@@H](O)CN2C(=O)Nc2ccc(Cl)c(Cl)c2)O1
60 | -7 | CN(C)CC(=O)N1CCCCN2[C@@H](CO)[C@H](c3ccc(-c4cccnc4)cc3)[C@@H]2C1

Remaining list, next part
entry | UUG fidelity | Structure
61 | -3 | COCC(=O)N1CCCCN2[C@H](CO)[C@@H](c3ccc(C#Cc4cccnc4)cc3)[C@H]2C1
62 | 10 | C[C@@H](O)C#Cc1ccc([C@@H]2[C@@H](CO)N3CCCCN(S(=O)(=O)Cc4ccccc4)C[C@H]23)cc1
63 | 0 | COc1ccccc1CN1[C@@H]2CN(C(=O)C3CC3)c3ccccc3[C@@H]2[C@@H]1CO
64 | 17 | O=S(=O)(NC[C@H]1N[C@@H](CO)[C@H]1c1ccc(C2=CCCC2)cc1)c1ccccc1
65 | -5 | C[C@@H]1CN([C@@H](C)CO)C(=O)Cc2cc(NS(=O)(=O)c3ccc(Cl)cc3)ccc2O[C@@H]1CN(C)CC1CC1
66 | -6 | C[C@@H]1CN([C@H](C)CO)C(=O)c2cc(NC(=O)Cn3cnnn3)ccc2O[C@H]1CN(C)C(=O)NC1CCCCC1
67 | -5 | CN1CCN(C(=O)C[C@@H]2CC[C@H]3[C@@H](COC[C@H](O)CN3S(=O)(=O)c3cccc(Cl)c3)O2)CC1
68 | -10 | C[C@@H]1CN([C@@H](C)CO)C(=O)c2cc(NS(=O)(=O)c3cn(C)cn3)ccc2O[C@@H]1CN(C)Cc1ccc(Cl)c(Cl)c1
69 | -17 | C[C@H]1CN([C@@H](C)CO)C(=O)c2cc(NC(=O)CCC(F)(F)F)ccc2O[C@@H]1CN(C)C
70 | 7 | CC(=O)N1[C@@H](CO)[C@@H](c2ccccc2)[C@@H]1CN(C)S(=O)(=O)c1ccccc1
71 | 3 | CO[C@H]1CN(C)C(=O)c2cc(NC(=O)C3CC3)ccc2OC[C@H](C)N(Cc2cc(F)ccc2F)C[C@H]1C
72 | 6 | O=C(Nc1ccc(F)cc1)N1C[C@H]2[C@@H](c3ccccc31)[C@H](CO)N2Cc1ccccc1
73 | -5 | CN(C)CC(=O)N1CCCCN2[C@H](C1)[C@@H](c1ccc(/C=C/c3ccccc3)cc1)[C@@H]2CO
74 | 3 | O=C(NCC1CC1)[C@@H]1[C@@H](CO)[C@@H]2Cn3c(cccc3=O)[C@H]1N2CCc1ccccc1
75 | -6 | COCC(=O)N1[C@H](CO)[C@H]2c3ccccc3N(C(=O)c3ccccc3F)C[C@H]21
76 | 13 | CC(C)OC(=O)N(C)C[C@@H]1OCc2ccccc2-c2c(n(C)c3ccccc23)C(=O)N([C@H](C)CO)C[C@H]1C
77 | 3 | CC(=O)N(CC(C)C)C[C@H]1[C@@H](c2ccc(C3=CCCC3)cc2)[C@@H](CO)N1C(C)=O
78 | 2 | C[C@H]1CN([C@@H](C)CO)C(=O)c2cccc(NC(=O)Nc3ccc(C(F)(F)F)cc3)c2O[C@H]1CN(C)C(=O)Nc1ccc(F)cc1
79 | -5 | CCCC#Cc1ccc([C@@H]2[C@H](CO)N3CCCCN(CC4CC4)C[C@@H]23)cc1
80 | -3 | Cc1noc(C)c1NC(=O)N(C)C[C@H]1Oc2c(NC(=O)Nc3ccc4c(c3)OCO4)cccc2C(=O)N([C@@H](C)CO)C[C@@H]1C
81 | 11 | CO[C@H]1CN(C)C(=O)c2ccc(NC(=O)C3CC3)cc2OC[C@H](C)N(C(=O)c2ccccc2)C[C@H]1C
82 | 2 | CCCN1C[C@H](C)[C@H](OC)CN(C)C(=O)c2ccc(NC(=O)c3cnccn3)cc2OC[C@@H]1C
83 | -4 | C[C@H]1CN([C@@H](C)CO)C(=O)c2cc(NS(C)(=O)=O)ccc2O[C@@H]1CN(C)C
84 | -1 | CO[C@@H]1CN(C)C(=O)c2cc(NC(=O)C3CC3)ccc2OC[C@H](C)N(C(=O)c2cnccn2)C[C@@H]1C
85 | 50 | COc1ccc(NC(=O)N2CCCCN3[C@H](CO)[C@@H](c4ccc(C#CCC(C)C)cc4)[C@@H]3C2)cc1

Part of the list above, field by field.
67) CN1CCN(C(=O)C[C@@H]2CC[C@H]3[C@@H](COC[C@H](O)CN3S(=O)(=O)c3cccc(Cl)c3)O2)CC1
  UUG fidelity = -5

68) C[C@@H]1CN([C@@H](C)CO)C(=O)c2cc(NS(=O)(=O)c3cn(C)cn3)ccc2O[C@@H]1CN(C)Cc1ccc(Cl)c(Cl)c1
  UUG fidelity = -10

69) C[C@H]1CN([C@@H](C)CO)C(=O)c2cc(NC(=O)CCC(F)(F)F)ccc2O[C@@H]1CN(C)C
  UUG fidelity = -17
